Source: PubChem BioAssay
T cruzi inh: blocks replication of Trypanosoma cruzi. inhibition, % (concentration not given with the values). AID 1885. hit rate 1.4% among 300,000. T. cruzi beta-gal in NIH3T3, luminescence, 90 h;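 active means mean inhibition across valid replicates above about 55%, limit read from the data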;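 further: signal also drops with host cell toxicity which is not excluded here; 0% = plate median of DMSO wells and 100% = zero luminescence signal; higher percent means less beta-gal luminescence so fewer parasites; stock transfer was 50 nL into about 50 µL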
E coli growth: E. coli growth inhibition; Escherichia coli growth, OD600, 23 h; hits give low values; OD600 absorbance (concentration not given with the values); hit rate 0.21% among 330,000; AID 1053175;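 active means OD600 absorbance below the run mean of sample wells minus 3.6 SD, in any replicate, cut at about 0.56 in these data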;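 further: stock transfer was 300 nL into about 60 µL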
Bfl-1 A1 inh: inhibitors of the anti-apoptotic protein A1, read as caspase activation | MEF A1-2A-BIM cells, Caspase-Glo 3/7 luminescence, 3 h; percent of clofoctol response, vehicle zero | caspase activation, % (concentration not given with the values) | hit rate 0.066% among 330,000 | AID 2462;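 active means over half of replicate activation scores above 10%, or exactly half above 10 with the replicate mean above 10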;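 further: wells of about 30 µL received 50 nL stock; many hits fall short of the cut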
FGF22 binding: shifts melting point of recombinant human FGF22; calls only at 9.99 µM; Q9HCT0; recombinant FGF22 thermal shift, SYPRO orange fluorescence; percent of sucrose octasulfate shift, DMSO zero; hit rate 1.5% among 340,000; AID 651658;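 active means melting point raised past a set limit in the mean and every replicate; three in four hits are not shown here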
Target sequence (Q9HCT0 whole entry, looked up): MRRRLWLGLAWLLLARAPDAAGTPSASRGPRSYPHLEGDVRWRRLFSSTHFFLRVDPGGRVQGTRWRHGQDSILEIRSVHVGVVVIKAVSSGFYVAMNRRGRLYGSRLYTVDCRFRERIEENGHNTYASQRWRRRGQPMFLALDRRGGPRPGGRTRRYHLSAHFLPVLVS
AF4-AF9 inh: inhibitors of human MLL-AF4/AF9 interaction. P42568. AlphaScreen, biotin-AF4 peptide binding to FLAG-AF9. inhibition, % at 10 µM. hit rate 0.47% among 350,000. AID 651704;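 active means every replicate reaching a set inhibition limit, whatever the replicate mean, cut at about 25% in these data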;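 further: 0% = plate neutral control median and 100% = total signal loss; the record names both 10 and 1 µM as test concentration; the first replicate is given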
UCH37 DUB inh: inhibitors of human deubiquitinating enzyme UCH37; Q9Y5K5; hit rate 0.33% among 330,000; AID 588478; purified proteasome/UCH37, Ub-AMC cleavage fluorescence; inhibition, % (test concentration not listed);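 active means mean of two replicates above 20%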;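 further: 0% = compound-free wells with enzyme and 100% = wells lacking proteasome; stock transfer was 100 nL into about 20 µL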
Target sequence (Q9Y5K5 whole entry, looked up): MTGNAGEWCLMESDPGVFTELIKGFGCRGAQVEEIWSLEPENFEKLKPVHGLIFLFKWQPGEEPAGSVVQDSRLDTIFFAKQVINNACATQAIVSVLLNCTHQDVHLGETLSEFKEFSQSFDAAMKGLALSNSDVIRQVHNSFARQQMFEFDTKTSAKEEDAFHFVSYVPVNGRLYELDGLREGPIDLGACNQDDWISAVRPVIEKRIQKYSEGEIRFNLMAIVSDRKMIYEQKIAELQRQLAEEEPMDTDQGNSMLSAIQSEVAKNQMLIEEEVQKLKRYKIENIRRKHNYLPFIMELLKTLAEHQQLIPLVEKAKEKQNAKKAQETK
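Material: Human UCH37 enzyme supplied as purified proteasome complex | Schedule: 30 min compound-proteasome preincubation then 25 min substrate reaction, room temperature | Detection: AMC fluorescence from Ub-AMC cleavage, excitation 355 nm, emission 460 nm | Benchmarks: Wells without proteasome as full block, compound-free enzyme plus substrate as uninhibited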
Ecoli rRNA inh: selective bacterial rRNA inhibition in E. coli | E. coli WT GFP vs humanized-ribosome RFP mutants, fluorescence, 24 h; hits give low values; DMSO median 0, no signal -100 | GFP signal change (wild-type ribosome), % (no concentration beside the values) | hit rate 1.6% among 350,000;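 active means significant combined selectivity score with lowered wild-type GFP, culture density cut under 30%, mutant RFP and density less affected; inactive means any of these conditions unmet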; further: one replicate is shown; some compounds called inactive have numbers as strong as hits
Beta apoptosis: beta cell apoptosis inhibition; INS-1E cytokine-induced death, ATP luminescence, 48 h; percent of positive-control rescue, neutral wells zero; protection from apoptosis, % (no concentration beside the values); hit rate 0.8% among 300,000; AID 435005;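 active means all replicates at 75% or more, or half of them and the mean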;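 further: 0% = cytokine-treated negative control wells and 100% = positive control rescue; higher means more ATP so stronger rescue from cytokine killing; wells of about 40 µL received 100 nL stock; the first replicate is given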
Ecoli rRNA inh OD600: recorded beside Ecoli rRNA inh, whose call it bears; OD600 change, %; measured here: OD600 growth;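 optical density of the mix in the first replicate; 0 = DMSO median and -100 = no signal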
Ecoli rRNA inh RFP: recorded beside Ecoli rRNA inh, whose call it bears; RFP signal change, %; measured here: RFP humanized mutant strains;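 first replicate; 0 = DMSO median and -100 = no signal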
* = called active by the depositor; i = inactive; . = no result given; & = joins results of further samples. Some of the compounds tested, so the mix of outcomes need not match the whole.

#	mol	T cruzi inh	E coli growth	Bfl-1 A1 inh	FGF22 binding	AF4-AF9 inh
1	Cc1ccc(S(=O)(=O)N2CCN(C(=O)CNC(=O)c3ccc(Br)o3)CC2)cc1	-13	0.7	-0.9	.	-0.7
2	Cc1ccc(N(CC(=O)Nc2ccccc2C(=O)NCc2ccco2)S(=O)(=O)c2ccccc2)cc1C	.	0.78	0.3	.	.
3	CC(C)n1ncc2c(C(=O)N3CCN(Cc4ccc(Br)s4)CC3)cc(C3CC3)nc21	.	0.7	0.3	i	1.1
4	CCN(C[C@H]1N[C@@](CC)(C(=O)OC)[C@H]2C(=O)N(C)C(=O)[C@@H]12)C(=O)COC	.	0.71	.	i	1.8
5	CCOc1ccc(NS(=O)(=O)c2ccc(C(=O)N3CCCCC3)cc2)cc1	21	0.69	0.1	i	-10
6	COC(=O)c1ccc(CNC(=O)c2ccc(OC)c(S(=O)(=O)NC3CCCC3)c2)cc1	.	0.7	0.3	i	1.6
7	COC(=O)c1cc(Br)c(=O)n(Cc2cccnc2)c1	6	0.73	-0.7	.	.
8	CC(=O)Nc1ccc(C(=O)Nc2cc(C)on2)cc1	-10	0.67	0.2	i	-1.4
9	CC(=O)Nc1ccc2c(c1)nc(C)n2-c1ccccc1	-8	0.65	0.4	i	0.3
10	C=CCn1c(C)cc(C(=O)COC(=O)/C=C/c2cccc(OC)c2)c1C	2	0.73	-2.6	i	-1.0
11	C[C@H](CO)N1C[C@H](C)[C@@H](CN(C)C(=O)Nc2ccccc2)Oc2ccc(NC(=O)CCN3CCOCC3)cc2C1=O	.	0.7	0.8	i	-1.8&-0.8
12	CCCCn1c2ccccc2c2cc(CC(N)=O)ccc21	15	0.7	0.5	i	.
13	COc1cc(/C=C2\C(=O)N(CCC#N)N=C2C)ccc1OCC(=O)Nc1ccccc1	-4	.	2.4	.	.
14	C1CN(CCN2CCOCC2)CCN1	1	0.66	0.2	.	.
15	O=S(=O)(Nc1cc(S(=O)(=O)N2CCOCC2)ccc1Cl)c1ccccc1	.	0.72	-0.2	i	0.9

#	UCH37 DUB inh	Ecoli rRNA inh	Ecoli rRNA inh OD600	Ecoli rRNA inh RFP	Beta apoptosis
1	2.3	1	6	-1.8	-2
2	-1.4	.	.	.	1
3	0.8	1	0	0.7	21
4	0.7	14	10	0.8	.
5	2.0	-6	-8	8.8	20
6	-1.0	-4	-1	7.2	-2
7	1.8	.	.	.	-3
8	3.7	16	4	4.9	-8
9	2.1	2	5	0.9	1
10	1.8	-21	-29	-4.2	-7
11	-2.4	9	24	0.9	-9
12	2.1	-46	-42	-2.1	-3
13	-0.6	.	.	.	-7
14	1.9	.	.	.	.
15	2.9	1	-1	-1.5	-4

At a glance, part of the list above:
#	mol	T cruzi inh	E coli growth	Bfl-1 A1 inh	FGF22 binding	AF4-AF9 inh
1	Cc1ccc(S(=O)(=O)N2CCN(C(=O)CNC(=O)c3ccc(Br)o3)CC2)cc1	-13	0.7	-0.9	.	-0.7
2	Cc1ccc(N(CC(=O)Nc2ccccc2C(=O)NCc2ccco2)S(=O)(=O)c2ccccc2)cc1C	.	0.78	0.3	.	.
3	CC(C)n1ncc2c(C(=O)N3CCN(Cc4ccc(Br)s4)CC3)cc(C3CC3)nc21	.	0.7	0.3	i	1.1
4	CCN(C[C@H]1N[C@@](CC)(C(=O)OC)[C@H]2C(=O)N(C)C(=O)[C@@H]12)C(=O)COC	.	0.71	.	i	1.8
5	CCOc1ccc(NS(=O)(=O)c2ccc(C(=O)N3CCCCC3)cc2)cc1	21	0.69	0.1	i	-10
6	COC(=O)c1ccc(CNC(=O)c2ccc(OC)c(S(=O)(=O)NC3CCCC3)c2)cc1	.	0.7	0.3	i	1.6
7	COC(=O)c1cc(Br)c(=O)n(Cc2cccnc2)c1	6	0.73	-0.7	.	.
8	CC(=O)Nc1ccc(C(=O)Nc2cc(C)on2)cc1	-10	0.67	0.2	i	-1.4
9	CC(=O)Nc1ccc2c(c1)nc(C)n2-c1ccccc1	-8	0.65	0.4	i	0.3
10	C=CCn1c(C)cc(C(=O)COC(=O)/C=C/c2cccc(OC)c2)c1C	2	0.73	-2.6	i	-1.0
11	C[C@H](CO)N1C[C@H](C)[C@@H](CN(C)C(=O)Nc2ccccc2)Oc2ccc(NC(=O)CCN3CCOCC3)cc2C1=O	.	0.7	0.8	i	-1.8&-0.8
12	CCCCn1c2ccccc2c2cc(CC(N)=O)ccc21	15	0.7	0.5	i	.
13	COc1cc(/C=C2\C(=O)N(CCC#N)N=C2C)ccc1OCC(=O)Nc1ccccc1	-4	.	2.4	.	.
14	C1CN(CCN2CCOCC2)CCN1	1	0.66	0.2	.	.

#	UCH37 DUB inh	Ecoli rRNA inh	Ecoli rRNA inh OD600	Ecoli rRNA inh RFP	Beta apoptosis
1	2.3	1	6	-1.8	-2
2	-1.4	.	.	.	1
3	0.8	1	0	0.7	21
4	0.7	14	10	0.8	.
5	2.0	-6	-8	8.8	20
6	-1.0	-4	-1	7.2	-2
7	1.8	.	.	.	-3
8	3.7	16	4	4.9	-8
9	2.1	2	5	0.9	1
10	1.8	-21	-29	-4.2	-7
11	-2.4	9	24	0.9	-9
12	2.1	-46	-42	-2.1	-3
13	-0.6	.	.	.	-7
14	1.9	.	.	.	.

Later entries
#	mol	T cruzi inh	E coli growth	Bfl-1 A1 inh	FGF22 binding	AF4-AF9 inh
16	O=C(CCl)N(Cc1cc(=O)[nH]c2ccccc12)c1ccccc1	10	.	0.4	i	-0.2
17	Cc1ccc(CCNC(=O)C2CCC(=O)N2Cc2ccc(F)cc2)cc1 (stereo not given)	-1	0.66	0.2	i	-1.1
18	CCc1cc(=O)oc2c3c(cc(OCC(=O)NCCCC(=O)O)c12)OC(C)(C)CC3	-7	0.68	0.6	i	-7.0
19	Cc1noc(C)c1NC(=O)Nc1ccc2c(c1)C(=O)N([C@H](C)CO)C[C@H](C)[C@@H](CN(C)C(=O)Nc1ccc3c(c1)OCO3)O2	.	.	-1.1	i	-2.2
20	CC1(c2ccc(Cl)cc2)NC(=O)CS1 (stereo not given)	-16	0.66	0.8	i	-0.1
21	Cn1c(=O)c2cn(-c3ccc4c(c3)OCCO4)cc2n(C)c1=O	10	0.76	-1.8	.	.
22	COc1cc(/C=N/Nc2nc(C)cc(=O)[nH]2)ccc1OC(=O)c1cccnc1	-8	.	2.1	i	-3.1
23	Cc1nc(C)c(C(=O)NCc2ccccc2Cl)o1	-27	0.74	-0.1	i	7.2
24	CN(C)C(=O)c1c([N+](=O)[O-])c(C(C)(C)C)nn1C	-35	0.7	-0.2	i	2.5
25	Brc1ccc(NC2=Nc3ccccc3CC2)cc1	-19	0.65	-3.4	.	.
26	O=C(NCCCn1ccnc1)c1cc(Br)c(Br)s1	51	0.64	0.5	i	8.5
27	Cc1nnc2sc(-c3ccc(NC(=O)c4ccc(-c5ccc(Cl)cc5Cl)o4)cc3)nn12	-19	0.72	0.4	.	.
28	CC(C)(OC(=O)c1ccc(F)cc1)c1cc2ccccc2c(=O)o1	.	0.65	-1.1	i	.

#	UCH37 DUB inh	Ecoli rRNA inh	Ecoli rRNA inh OD600	Ecoli rRNA inh RFP	Beta apoptosis
16	.	-1	13	-1.4	-17
17	1.0	-2	6	0.6	0
18	i	-1	4	0.1	-6
19	0.5	5&3	9&11	-0.1&-0.2	-1
20	0.8	4	2	0.3	-9
21	-21	.	.	.	-7
22	.	10	18	1.8	8
23	2.5	.	.	.	6
24	0.9	5	9	13	1
25	0.2	.	.	.	4
26	6.0	-9	-13	-2.0	-2
27	-135	.	.	.	1
28	-1.5	-3	2	2.0	-1
